Screening data (PubChem BioAssay)
Mtb hypoxia rep – Mtb hypoxia fluorescent reporter inhibition; M. tuberculosis hypoxia-regulated fluorescent reporter, fluorescence; hit rate 0.1% among 300,000; fluorescence inhibition, % (test concentration not listed); AID 1159583;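 active means 35 to 45% if threefold the growth effect, above 45% if 1.5-fold the growth effect; inactive means the rest, general growth blockers included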;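 further: wells of about 50 µL received 100 nL stock; 0% = vehicle wells and 100% = reference inhibitor wells; whole bacteria with a GFP reporter of the hypoxia response; strong numbers were not always called active; many hits fall short of the cut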
RN4220 kill – kills Staphylococcus aureus RN4220; S. aureus RN4220 growth, OD600, 16 h; inhibition, % (no concentration beside the values); hit rate 0.33% among 330,000; AID 1259311;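 active means z-score of -3 or lower and OD600 up to 0.18 on both plates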;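 further: plate controls were untreated cells for no effect and reference antibiotic for full effect; stock transfer was 100 nL into about 80 µL; one replicate is shown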
BJeLR viability – kills HRASV12-expressing BJeLR cells; BJeLR (HRASV12) viability, CellTiter-Glo ATP luminescence, 48 h; reference of the scale not given here; inhibition, % (concentration not given with the values); hit rate 0.17% among 300,000;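 active means replicate mean above 50%; inconclusive means above 50% but judged a plate artefact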;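 further: 50 nL library stock added to about 25 µL; numbers are from one replicate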
PrP UTR inh – suppresses PrP 5' UTR mRNA reporter expression; hit rate 0.35% among 340,000; cell-based PrP 5' UTR mRNA reporter, plate reader; inhibition, % (no concentration beside the values); AID 488862;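 active means every replicate at 50% or more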;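 further: 0 = median of the neutral control wells; tested in H4 reporter cells; numbers are from one replicate; inactives centre near -14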
Sa ugtP lethal – kills S. aureus RN4220 lacking UgtP; hit rate 0.54% among 330,000; AID 1259309; growth inhibition, % (concentration not given with the values); S. aureus RN4220 ugtP deletion, OD600 growth, 16 h; some inactives read as strong as hits;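 active means z-score under -3 and OD600 up to 0.15 on both plates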;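 further: plate controls were untreated wells for no effect and antibiotic for full effect; wells of about 80 µL received 100 nL stock; the first replicate is given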
Autofluor counter – counter-screen for toxin protease inhibitors: compound fluorescence; compound autofluorescence counterscreen, microsphere flow cytometry; stronger effect = higher value; fluorescence intensity (concentration not given with the values); hit rate 3.1% among 360,000;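 active means at least 3 SD above the mean of all compounds, about 16000 in these data; inconclusive means too few beads counted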;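 further: 100 nL of 1 mM stock went into each well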
Mtb hypoxia rep growth – recorded beside Mtb hypoxia rep, whose call it bears; growth inhibition, %; measured here: M. tuberculosis growth (absorbance);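 0% = vehicle and 100% = reference antibiotic; read after six days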
Active calls of the source: *; u = inconclusive; x = not tested or not shown; & = joins results of further samples.

SMILES | Mtb hypoxia rep | Mtb hypoxia rep growth | RN4220 kill | BJeLR viability | PrP UTR inh | Sa ugtP lethal | Autofluor counter
CC(=O)c1cccc(NC(=O)CSCc2ccccc2)c1 | 6 | 2 | 1.9 | -6 | -25 | 2 | 16402*
COc1ccccc1OCC(=O)NNC(=O)c1ccc2c(=O)n3c(nc2c1)CCC3 | 1 | 3 | 1.1 | 1 | -12 | 9 | 6160
COC(C[C@H](O)[C@@H](C)[C@@H](O)COCc1ccccc1)OC | x | x | x | 2 | -9 | x | 3559
O=C(Cn1c(=O)oc2cc(S(=O)(=O)N3CCc4ccccc43)ccc21)NC1CCCC1 | x | x | 0.7 | 5 | -8 | 15 | 5539
CC(C)(C)c1ccc(OCC(=O)N/N=C/c2ccsc2)cc1 | x | x | x | 5 | -15 | x | 9945
CCOC(=O)C1CCN(S(=O)(=O)c2c(C)n[nH]c2C)CC1 | x | x | 6.1 | 2 | -14 | 2 | 4707
CC(C)c1ccc(N(CC(=O)NC(C)(C)C)C(=O)CCC(=O)Nc2nccs2)cc1 | 0 | -5 | 8.7 | -6 | -8 | 7 | 3593
COc1ccc(N2CCN(c3ccc(N)cc3C#N)CC2)cc1 | x | x | 7.2 | 0 | -9 | 0 | 4670
O=C(NN=C1CCCC1)c1cccc(Br)c1 | -4 | 11 | -0.5 | -3 | -7 | 0 | 3198
COC(=O)CN1C(=O)Nc2ccc(Br)cc2C1c1ccccc1Cl (configuration not stated) | -14 | 12 | 3.6 | -7 | -18 | -31 | 3200
CC(C)CC(OC(=O)c1ccco1)C(=O)NC1CCCC1 (configuration not stated) | 2 | 10 | -1.8 | -7 | -5 | 10 | 4298
CCC(O)(c1ccc(OC)cc1)C(CN1CCOCC1)c1ccccc1 (configuration not stated) | 14 | 4 | 4.2 | x | -8 | 4 | 4774
Cc1ccc(SCCNC(=O)c2ccc([N+](=O)[O-])c(C)c2)cc1 | 2 | -5 | 2.2 | -1 | -26 | 2 | 3601
OCCn1c(SC2CCCCC2)nc2ccccc21 | 11 | 5 | 6.9 | 5 | -24 | 10 | 8838
CN(C)/C=C(/C(=O)c1ccc(Cl)cc1)S(=O)(=O)c1ccccc1 | 11 | 2 | 6.9 | -5 | -28 | 5 | 16091

Overlap with the part before: 3 compounds, then new ones.
SMILES | Mtb hypoxia rep | Mtb hypoxia rep growth | RN4220 kill | BJeLR viability | PrP UTR inh | Sa ugtP lethal | Autofluor counter
Cc1ccc(SCCNC(=O)c2ccc([N+](=O)[O-])c(C)c2)cc1 | 2 | -5 | 2.2 | -1 | -26 | 2 | 3601
OCCn1c(SC2CCCCC2)nc2ccccc21 | 11 | 5 | 6.9 | 5 | -24 | 10 | 8838
CN(C)/C=C(/C(=O)c1ccc(Cl)cc1)S(=O)(=O)c1ccccc1 | 11 | 2 | 6.9 | -5 | -28 | 5 | 16091
CC12CCC(C(=O)Nc3cccnc3)(CC1=O)C2(C)C (configuration not stated) | x | x | 1.9 | 7 | -19 | -1 | 4581
O=C1NCCN1Cc1ccccc1F | 2 | 7 | -0.5 | -1 | x | 3 | 12699
COc1ccc(NC(=O)CCCc2c[nH]c3ccccc23)cc1OC | 8 | 7 | 2.5 | -2 | -13 | 2 | 2174
CC[n+]1c(-c2ccc(C)cc2)csc1Nc1c(C)n(C)n(-c2ccccc2)c1=O | 4 | 1 | -0.3 | -5 | -3 | 3 | 2407
Cc1ccccc1NC(=O)Nc1ccccc1C(=O)NCc1ccccc1 | x | x | -2.2 | 2 | -9 | -3 | 4361
Nc1cccc2nc3ccccc3cc12 | -7 | -7 | 0.4 | 23 | -17 | -2 | 6190
Cc1ccc(C(=O)n2nc(-n3cccc3)c3c(C)cc(C)nc32)cc1 | -5 | 5 | 4.5 | 5 | -23 | -12 | 4364
O=C1NC(Cc2ccccc2)C(=O)N2C1C[C@]1(Br)c3ccccc3N(S(=O)(=O)c3ccccc3)C21 (some centres not stated) | 13&4 | 11&6 | 17&19 | x | x | 11&19 | x
O=C(CC1Oc2ccccc2NC1=O)NCCCN1CCCC1=O (configuration not stated) | x | x | -0.1 | 1 | -40 | 2 | 5790
OCCCCNCc1ccc(OCc2ccc(Cl)cc2Cl)cc1 | 25 | 16 | -12 | 5 | -10 | -15 | 8560
CC(=O)c1c(C)[nH]c(C(=O)NCCc2ccc(Cl)cc2)c1C | 3 | 17 | 5.0 | 5 | -36 | 1 | 4748
COc1cc(C(=O)NNC(=O)COc2ccc(Br)cc2)ccc1OCC(=O)N1CCOCC1 | 3 | -1 | 4.1 | x | -18 | 0 | 3982
CCCN(CC(=O)Nc1ccccc1C)C(=O)c1ccc2c(c1)S(=O)(=O)N=C1CCCCCN12 | 6 | 5 | 1.3 | x | -14 | 3 | 3902
CCCn1nnnc1NC(=O)c1ccc(C)cc1Cl | 15 | 7 | 6.6 | 7 | -23 | 0 | 11679
Cc1nn2c(-c3ccncc3)ccnc2c1Cl | 11 | 0 | -3.9 | 9 | 0 | 4 | 4403

SMILES | Mtb hypoxia rep | Mtb hypoxia rep growth | RN4220 kill | BJeLR viability | PrP UTR inh | Sa ugtP lethal | Autofluor counter
Cc1ccccc1NC1=C(Cl)C(=O)OC1OC(C)C (configuration not stated) | -3 | 0 | -1.1 | 1 | -25 | -3 | 9159
Nc1ccc(N2CCOCC2)c(S(=O)(=O)Nc2ccccc2Cl)c1 | 1 | 1 | 6.6 | x | -24 | -2 | 5401
CCCCn1c(N)c(N(CC(C)C)C(=O)c2ccncc2)c(=O)[nH]c1=O | -3 | 4 | -1.3 | 4 | -25 | -2 | 7147
Cc1ccc(-c2[nH]c3ccccc3c2C(C[N+](=O)[O-])c2ccco2)cc1 (configuration not stated) | 11 | 9 | -17 | 4 | -21 | 25 | 3358
O=C(CSCc1ccccc1)N/N=C/c1cc2c(cc1Br)OCO2 | x | x | x | 12 | -27 | x | 2080
COc1cc(C(C(=O)NC2CCCC2)N(Cc2ccccc2)C(=O)c2snc(C(N)=O)c2N)ccc1O (configuration not stated) | -6 | 7 | 2.6 | -2 | 8 | 7 | 3742
COc1ccccc1CNC(=O)COC(=O)c1ccccc1SCC(=O)N1CCCC1 | 1 | -2 | 3.4 | -6 | -14 | 3 | 6233
Cc1ccc(C)c(NC(=O)CCN2CC(C)OC(C)C2)c1 (configuration not stated) | 9 | 0 | 2.8 | 5 | -6 | 2 | 2954
Cc1nn(-c2ccccc2)c(C)c1/C=N/NC(=O)c1cnccn1 | x | x | x | -8 | -11 | x | 4636
CC(=O)O[C@H]1CCC2C3CC[C@H]4[C@@H](O)[C@H](O)CC[C@]4(C)C3CC[C@@]21C (some centres not stated) | -20 | 14 | 10 | x | -13 | 4 | 4144
Cc1nc(N)sc1-c1csc(Nc2cccc(C(=O)O)c2)n1 | 9 | 11 | 4.0 | 2 | 0 | 5 | 3945
Cc1cc(C)nc(NS(=O)(=O)c2ccc(NC(=O)Nc3ccccc3)cc2)n1 | 4 | 13 | 1.6 | -10 | -35 | 2 | 4053
COC(=O)CC1=NN(c2ccc(OC)cc2)C(=O)/C1=C\c1ccc(Cl)cc1 | 4 | 6 | 4.3 | -9 | -52 | 2 | 2160
COc1ccc2[nH]c(=O)c(CN(c3ccc(C)c(C)c3)S(C)(=O)=O)cc2c1 | 5 | 2 | 3.1 | 1 | -4 | 1 | 3406
CCCCCC(=O)Nc1ccc(C(=O)COC(=O)c2ccccn2)cc1 | 6 | 9 | 3.9 | -2 | 0 | 3 | 6548

SMILES | Mtb hypoxia rep | Mtb hypoxia rep growth | RN4220 kill | BJeLR viability | PrP UTR inh | Sa ugtP lethal | Autofluor counter
CCOCc1nnc(NC(=O)CSc2ccc(C)cc2)s1 | 5 | 1 | 6.0 | 5 | -21 | 2 | 10473
CC(C)NC(=O)COC(=O)c1ccc(O)cc1 | 12 | 3 | 0.9 | -19 | 0 | 4 | 4406
Cc1cc(C)n(CC(O)COc2ccccc2C)n1 (configuration not stated) | 4 | 3 | 1.4 | x | -10 | 10 | 4527
CCCC(=O)OCCn1c(Br)nc2c1c(=O)[nH]c(=O)n2C | 12 | 4 | 4.7 | -4 | 0 | 9 | 3239
O=C(NCc1cccnc1)Nc1ccccc1F | 16 | 12 | 3.3 | 6 | -14 | -1 | 3851
O=C(CSc1nc2ccccc2[nH]1)Nc1ccccc1N1CCOCC1 | 4 | 2 | -2.1 | -8 | -18 | -4 | 6483
CS(=O)(=O)N(Cc1nc2sc3c(c2c(=O)[nH]1)CCCC3)C1CCCCC1 | x | x | 3.3 | 1 | x | -6 | x
O=C(CN1CCCC1)NC(c1ccccc1)c1ccccc1 | 6 | 9 | 3.7 | -2 | -23 | 11 | 3916
COc1ccccc1C=NN1CCN(Cc2ccccc2Cl)CC1 | 11 | 4 | 6.3 | x | x | 8 | x
O=C(O)COc1ccccc1C=NNC(=O)c1cc2ccccc2cc1O | -7 | -4 | -3.7 | x | x | -12 | x
Cc1c(CC(=O)N2CCC(C(=O)O)CC2)c(=O)oc2cc3c(cc12)CCC1(CCCCC1)O3 | x | x | 1.7 | 2 | -3 | -21 | 3974
CCN=C1SC(CC(=O)NCCc2ccc(OC)c(OC)c2)C(=O)N1CC (configuration not stated) | x | x | 2.2 | 0 | -16 | 7 | 4565
CCOC(=O)c1cnc(-n2nc(C)cc2C)nc1NC | -1 | 4 | 31 | 6 | -39 | -5 | u
Cc1cccc2c3nc4ccccc4nc3n(CCCN3C(=O)c4ccccc4C3=O)c12 | -2 | -2 | -2.1 | -1 | 4 | 4 | 9464
CCN(CC)c1nc(N)c2c(N)nc(OC)cc2c1C#N | 0 | 4 | 9.9 | -11 | -9 | 7 | 4674

SMILES | Mtb hypoxia rep | Mtb hypoxia rep growth | RN4220 kill | BJeLR viability | PrP UTR inh | Sa ugtP lethal | Autofluor counter
CNC(=O)c1c(Cl)cnn1-c1ccccc1 | -15 | -3 | -1.7 | -3 | -20 | -2 | 4867
O=C(O)CCCCCNC(=O)CSc1nnc(-c2ccco2)n1-c1ccccc1 | 3 | 2 | 1.8 | -11 | -12 | 5 | 3550
CCOCCCNC(=O)C(NC(=O)CNC(C)=O)c1ccc(Cl)cc1 (configuration not stated) | x | x | 3.6 | 0 | -4 | 4 | 4816
Cc1ccsc1CN1CCC(C(=O)NCc2ccccc2Cl)CC1 | 5 | 3 | 3.3 | 0 | -16 | 10 | 2155
Cc1ccc(S(=O)(=O)Nc2cccc(C(=O)N3CCCC3)c2)cc1F | -11 | -16 | 13 | 4 | -2 | 2 | 6201
CC1(C)C(=O)Nc2ccccc2N1C(=O)COC(=O)c1cc(S(=O)(=O)N2CCOCC2)ccc1F | 6 | -2 | 1.6 | 5 | -2 | 1 | 4530
O=C(NCCc1ccccc1)c1cccc2c1C(=O)N(C1CCCCC1)C2 | 3 | 4 | 2.3 | -1 | -10 | -12 | 6074
Cn1nnc2cc(NC(=O)NCc3ccc4c(c3)OCO4)ccc21 | -10 | -11 | 1.1 | 4 | 2 | 0 | 4195
O=S(=O)(NN1CCOCC1)c1ccc(Br)cc1 | 1 | 8 | 2.4 | -9 | -21 | 6 | 5979
Cc1cccc(C)c1NC(=O)Cn1c(=O)c(N2CCCCC2)c(N)n(C)c1=O | 2 | -2 | -1.0 | x | -19 | 0 | 3486
O=C(CCN1C(=O)c2cccnc2C1=O)NC1CCCCCC1 | 13 | 8 | 5.0 | 5 | 5 | 7 | 4463
O=C(Nc1ccccc1N1CCCC1)c1ccc([N+](=O)[O-])cc1Cl | 6 | 10 | 5.9 | -5 | -9 | -2 | 2623
COC(=O)C1(c2ccccc2)NC(c2ccc(O)cc2)C2C(=O)N(c3ccc4c(c3)OCO4)C(=O)C21 (configuration not stated) | -4 | -1 | -2.5 | 12 | 1 | -7 | 4769
CC1=CCC2C(=O)N(CCc3c[nH]c4ccccc34)C(=O)C2C1 (configuration not stated) | 8 | 14 | 23 | 5 | -20 | -5 | 10155
CC(C)C(NS(=O)(=O)c1ccc2c(c1)OCCO2)C(=O)NCCc1ccccn1 (configuration not stated) | x | x | -0.4 | 27 | -13 | 10 | 2959
O=C(CC1Sc2ncnn2C1=O)Nc1ccc(Cl)cc1 (configuration not stated) | 11 | 8 | 9.0 | 6 | x | -4 | x
O=C(CN1CCN(c2ccccc2)CC1)Nc1ccccc1Cl | 5 | 2 | 3.0 | -8 | -18 | 9 | 2489
